Screening results as filed in PubChem BioAssay.
NPYLR7 ag – agonists of mosquito NPYLR7 receptor, primary screen, cell-based, Aedes aegypti, calcium fluorescence, mosquito biting behavior; Aedes aegypti neuropeptide Y-like receptor 7 (NPYLR7); HEK293T NPYLR7/Galpha15, GCaMP6s calcium fluorescence; activation, % at 10 µM; 0.15% of 270,000 active; AID 1259423, 2018; in the data active means activation above about 40%;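 further: 0% = vehicle and 100% = reference agonist at the receptor; some compounds past the cut are filed as inactive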
NPYLR7 ag max-min – recorded beside NPYLR7 ag, whose call it bears; activation, %; measured here: Max-Min RFU normalised activation; some inactives read as strong as hits;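 span of the calcium signal over five minutes; 0% = vehicle and 100% = native peptide agonist; compound fluorescence can raise it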
Starred values were filed as active, the others as inactive; & = joins results of further samples. Only part of the results is shown; the hit share may differ from the screen's.

SMILES	NPYLR7 ag	NPYLR7 ag max-min
CC1CCN(c2ccc(NC(=O)COCc3ccccc3)cc2C(=O)NCc2ccc(F)cc2)CC1	17.9	25.5
CCCOc1ccccc1C(=O)N1CCOC(c2ccc(F)cc2)C1 (stereo not drawn)	-6.7	-14.0
CCOC(=O)N1CCN(C(c2cccc(C)c2)C2Sc3nc(C)nn3C2=O)CC1 (stereo not drawn)	-9.4	-11.1
O=C(Nc1ccc(-c2ncccn2)cc1)c1ccc2c(c1)OCCCO2	-2.6	-5.2
CC(C)=C1CC[C@]2(C1)C(=O)CCC1=C2CCCC1=O	-3.7	-5.6
N#Cc1ccc(COC(CN2CCN(C(=O)c3ccccn3)CC2)c2cccc(N3CCCC3)c2)cc1 (stereo not drawn)	-2.3	9.2
COc1cccc(NC(=O)CCC2CCN(C(=O)c3c(C)noc3C)CC2)c1	15.9	3.9
CCCc1nc(C(NC(=O)Cc2cccnc2)c2ccccc2)no1 (stereo not drawn)	-3.2	-7.1
COc1cc2c(cc1OC)C(c1cccc(Cl)c1)N(C(=O)Nc1ccc(C)cc1)CC2 (stereo not drawn)	-1.3	1.2
COc1ccc(-c2cc(C(=O)N/N=C\c3cc(OC)c(OC)cc3OC)[nH]n2)cc1	1.5	-0.3
C=CCC1(CC=C)CCCN1C(=O)C1CCC(=O)N(CCc2ccccn2)C1 (stereo not drawn)	-0.7	-1.0
CCOC(=O)C1CCN(C(=O)c2cc(-c3ccc(F)cc3)n(-c3ccc(C)cc3)c2C)CC1	0.0	10.2
CC(C)c1cnc(CN(C)C2CCN(CCn3cncn3)C2)o1 (stereo not drawn)	1.9	7.6
NC(Cc1ccccc1)c1csc(Nc2cc(Oc3ccccc3)ncn2)n1 (stereo not drawn)	-3.3	-10.7
CCCCN(C(=O)CSc1nc2sccc2c(=O)[nH]1)C(C)CC (stereo not drawn)	1.0	3.2
CCCC(=O)Nc1ccc(OCC(O)CNC(C)C)c(C(C)=O)c1 (stereo not drawn)	-3.2&-4.6&1.9&3.6	-7.6&-9.7&1.8&1.9
CCn1c(C)cc(O)c(C(c2ccncc2)N2CCCCC2)c1=O (stereo not drawn)	8.3	5.3
CN(C)CCNc1nc(Oc2ccc(Cl)c(Cl)c2)c2sccc2n1	6.2	0.8
CC(C)NC(=O)C1(C)CCCN1Cc1ccccc1C#N (stereo not drawn)	0.1	-2.1
Cc1cccc2c(=O)cc(C)n(CC(=O)Nc3ccc(Br)cc3)c12	0.0	5.1
O=C1CN(C(=S)Nc2c(F)cc(F)cc2F)CC2c3cccc(F)c3CCN12 (stereo not drawn)	34.8	16.0
N=C(N)Sc1cn(CCNC(=O)c2cccc(C(F)(F)F)c2)c2ccccc12	-6.7	-12.2
O=S(=O)(Nc1ccc(Cl)cc1)c1cnc[nH]1	6.1	5.3
O=C(Nc1ccc(Oc2ccccc2F)cc1)C1CCN(C(=O)C2CCCO2)CC1 (stereo not drawn)	-3.4	-4.4
COC(=O)C1=C(C)NC(C)=C(C(=O)OC)C1C(=O)OCc1ccc(C(=O)OC)o1	1.4	2.7

(list continues)
SMILES	NPYLR7 ag	NPYLR7 ag max-min
CCCc1cc2c(=O)c(-c3ccc4c(c3)OCO4)coc2cc1OC(C)C	-6.3	-11.5
COc1ccc(-c2cc(C(=O)N3CCN(c4ccccc4Cl)CC3)nc3c(-c4ccccc4)c(C)nn23)cc1	1.6&-7.9	11.2&-5.9
CCCN(Cc1c(C)nn(-c2ccccc2)c1N1CCN(C)CC1)C(=O)Nc1cccc(F)c1	0.5	4.0
c1ccc2c(c1)nc(NC1CCCCCCC1)c1nnnn12	3.1	-1.2
Cc1ncnc2c1ncn2-c1cccc(NC(=O)C(C)C)c1	-2.2	-0.3
CCCCCOc1ccc(Nc2ccc(-c3cccc(OC(F)(F)F)c3)cn2)cc1	-11.8	-9.9
CC1Sc2ccc(S(C)(=O)=O)cc2N(Cc2ccc(OC(F)(F)F)cc2)C1=O (stereo not drawn)	-5.2	-5.2
CN(Cc1c(F)cccc1Cl)c1cnn(C(C)(C)C)c(=O)c1Cl	-3.1	-4.7
COc1cccc(C(=O)NCCn2ncc3c(=O)n(Cc4ccc(F)cc4)cnc32)c1	-8.3	-11.8
CN(Cc1ccccc1Cl)C(=O)CCc1nc2sc3c(c2c(=O)[nH]1)CCC3	-3.8	-6.1
CSc1nnc(CN2CCN(Cc3nc(C)no3)CC2)s1	1.2	-0.1
CN(C)CC1(O)CCCN(C(=O)c2ccc(CO)o2)C1 (stereo not drawn)	5.6	3.8
CCC1c2ccsc2CCN1C(=O)c1ccc(S(=O)(=O)N2CCCC2)cc1 (stereo not drawn)	6.6	10.4
CN(C(=O)C1CC(=O)Nc2cc(F)ccc21)c1ccccc1 (stereo not drawn)	0.6	1.1
O=C(CSc1nnnn1C1CCCC1)c1ccc2c(c1)OCO2	10.7	8.8
O=C(/C=C/c1ccc([N+](=O)[O-])cc1)Nc1ccc(N2CCCC2)c(C(=O)NCc2cccnc2)c1	12.3	11.5
COc1ccc(C2=NN(C(=O)CN3CCC4(CC3)OCCO4)C(c3ccc(C)cc3C)C2)c(OC)c1 (stereo not drawn)	11.7	15.3
O=C(c1cccc2c1NCCC2)N1CC[C@@H](c2ccc3c(c2)OCO3)[C@H](O)C1	-3.3	-3.2
CNC(=O)CN1CCC(NC(=O)CCC(=O)c2cc(C)ccc2C)CC1	7.0	6.2
COCCCn1cc(C(=O)N2CCc3ccccc3C2)c2nn(-c3ccccc3)c(=O)c-2c1	6.9	4.3
COc1ccc(OC)c(-c2cnc(-c3ccc(CNC(=O)c4cc(Cl)cnc4Cl)cc3)[nH]2)c1	-16.9	-17.4
CN1C(=CC=Nc2ccc([N+](=O)[O-])cc2Br)C(C)(C)c2ccccc21	19.7	17.0
C=C(C)C1CCC(C)=C1CCC(C)=NNC(N)=O (stereo not drawn)	1.8	23.4
COc1ccc(CNC(=O)c2cn(Cc3ccccc3OC(C)=O)c(=O)s2)cc1OC	13.6	11.5
Cc1cc(N(C)C)nc(NCCNC(=O)Nc2cccc(Cl)c2C)n1	0.6	-0.1

Following part:
SMILES	NPYLR7 ag	NPYLR7 ag max-min
COc1cccc(CC(=O)Nc2ccc3c(c2)CCC3)c1	-1.6	-2.6
O=C(NC(c1ccc(Cl)cc1)C1CC1)c1ccco1 (stereo not drawn)	4.1	2.2
Cc1c(Cl)cccc1S(=O)(=O)N1CCN(C(c2ccccc2)c2ccc(Cl)cc2)CC1 (stereo not drawn)	-3.2	-2.3
Cc1ccc(-n2ncc3c(=O)n(NC(=O)Cc4cccs4)cnc32)cc1C	3.0	2.2
Cc1ccc2nc(-c3ccc(C)c(NC(=O)c4cccc(Cl)c4)c3)oc2c1	-4.7	-8.9
Cc1c(C(=O)N(C)Cc2ccc(F)cc2)sc(=O)n1CC(=O)N(C)C	1.8	-1.2
O=S1(=O)CCN2C(c3ccc(Cl)c(Cl)c3)=CSC2=N1	-1.4	-2.4
CCOc1ccccc1CN1CCN(Cc2cn[nH]c2-c2ccccc2)CC1CCO (stereo not drawn)	8.6	5.0
COn1c(=O)c(C)[n+]([O-])c2ccccc21	3.2	-8.6
Cn1cnnc1C1CCN(Cc2cc3n(n2)CCNC3)CC1	6.8	3.4
O=C(CSc1nc2c(c(=O)n1-c1ccccc1)SCC2)N1CCN(c2ccccc2)CC1	7.3	2.6
CCCNC(=O)CSc1nc2[nH]ncc2c(=O)[nH]1	0.1	-2.2
O=C(Nc1cccc(C2SCC(=O)N2c2ccc(C(F)(F)F)cc2)c1)c1ccc(Br)cc1 (stereo not drawn)	8.1	13.1
COC(=O)c1ccc(C(=O)N2CC(=O)N(Cc3cccnc3)CC(OCc3ccccc3)C2)cc1 (stereo not drawn)	18.8	9.2
O=C(OCc1nc(-c2ccc(F)cc2)no1)C1CCS(=O)(=O)C1 (stereo not drawn)	1.5	-0.4
Cc1nc(N)ccc1-c1cccc(O)c1	3.8	0.5
CC(C)(CCl)C(=O)N1CCN(c2ncnc3c2nnn3-c2cccc(F)c2)CC1	-1.7	-6.2
CN(C)C(=O)OCn1cc[n+](C)c1	16.7	8.6
N=C1/C(=C/c2ccc(OC(=O)c3ccco3)cc2)C(=O)N=C2SC=CN12	0.3	0.0
Cc1ccc[n+](C2=C(c3c(C)[nH]n(-c4ccc(Cl)cc4)c3=O)C(=O)N(CC(C)C)C2=O)c1	7.5	12.1
CC(=NNc1ncnc2sc(C)c(C)c12)c1ccccn1	59.2*	48.5*
COc1cccc(C(=O)Nc2c3c(nn2-c2ccc(C)cc2C)CS(=O)(=O)C3)c1	2.5	-0.3
NS(=O)(=O)c1ccc(NC(=O)Nc2ccc(F)cc2)cc1	1.3	-2.3
Cc1ccc(NC(=O)Cn2nnc(C(=O)NCc3ccccc3)c2N)cc1C	-6.6	-14.8
C=C(Cl)CSc1nnc(Cc2cccs2)o1	0.7	0.3

Further entries follow.
SMILES	NPYLR7 ag	NPYLR7 ag max-min
CCOc1ccc(C(=O)Nc2c(N)nc(SCC(=O)Nc3nccs3)[nH]c2=O)cc1	-2.1	-2.4
O=C1/C(=C/c2cccnc2)Oc2cc(OS(=O)(=O)c3ccc(Cl)cc3)ccc21	-3.0	-6.4
O=C1NC(=S)S/C1=C\c1cc(Br)ccc1OCc1ccccc1Br	2.7	-28.5
Cc1c(CN2CC(=O)N(Cc3ccccc3)CC(O)C2)c(=O)n(-c2ccccc2)n1C (stereo not drawn)	-8.6	-11.3
Cc1ccc(C(=O)N2CCN(c3nc(Cc4ccccc4)nc4onc(-c5ccccc5)c34)CC2)cc1	-1.7	10.2
Cc1nc2c(C)cc(-c3ccnc4[nH]ccc34)cn2n1	-1.3	-5.4
O=C(CCC(=O)Nc1ccc(F)c(Cl)c1)NCCc1cnc[nH]1	9.2	-5.0
CCCNC(=O)c1c(C)c(C(=O)OCC)n(C)c1C	4.3	22.0
CCN1CCN(c2c(CN(C(=O)Nc3cccc(OC)c3)C(C)C)c(C)nn2-c2cccc(F)c2)CC1	15.2	22.1
COc1ccc(CNC(=O)c2sc(=O)n(CC(=O)N(C)C)c2C)cc1OC	14.7	8.0
COc1ccc(Cl)cc1NC(=O)c1ccc(OC)c([N+](=O)[O-])c1	0.8	-1.9

An excerpt of these results, with two lines to a compound.
Values run as follows: NPYLR7 ag	NPYLR7 ag max-min
CCOC(=O)N1CCN(C(c2cccc(C)c2)C2Sc3nc(C)nn3C2=O)CC1 (stereo not drawn)
  -9.4	-11.1
O=C(Nc1ccc(-c2ncccn2)cc1)c1ccc2c(c1)OCCCO2
  -2.6	-5.2

Arranged by formula weight (low to high): some entries from above.
SMILES	NPYLR7 ag	NPYLR7 ag max-min
CN(C)C(=O)OCn1cc[n+](C)c1	16.7	8.6
Cc1nc(N)ccc1-c1cccc(O)c1	3.8	0.5
Cc1nc2c(C)cc(-c3ccnc4[nH]ccc34)cn2n1	-1.3	-5.4
CCCNC(=O)c1c(C)c(C(=O)OCC)n(C)c1C	4.3	22.0
C=C(Cl)CSc1nnc(Cc2cccs2)o1	0.7	0.3
CC(=NNc1ncnc2sc(C)c(C)c12)c1ccccn1	59.2*	48.5*
Cn1cnnc1C1CCN(Cc2cc3n(n2)CCNC3)CC1	6.8	3.4
NS(=O)(=O)c1ccc(NC(=O)Nc2ccc(F)cc2)cc1	1.3	-2.3
O=S1(=O)CCN2C(c3ccc(Cl)c(Cl)c3)=CSC2=N1	-1.4	-2.4
COc1ccc(Cl)cc1NC(=O)c1ccc(OC)c([N+](=O)[O-])c1	0.8	-1.9
O=C(CCC(=O)Nc1ccc(F)c(Cl)c1)NCCc1cnc[nH]1	9.2	-5.0
O=C(OCc1nc(-c2ccc(F)cc2)no1)C1CCS(=O)(=O)C1 (stereo not drawn)	1.5	-0.4
N=C1/C(=C/c2ccc(OC(=O)c3ccco3)cc2)C(=O)N=C2SC=CN12	0.3	0.0
Cc1ccc(NC(=O)Cn2nnc(C(=O)NCc3ccccc3)c2N)cc1C	-6.6	-14.8
COc1ccc(CNC(=O)c2sc(=O)n(CC(=O)N(C)C)c2C)cc1OC	14.7	8.0
COc1cccc(C(=O)Nc2c3c(nn2-c2ccc(C)cc2C)CS(=O)(=O)C3)c1	2.5	-0.3
O=C1/C(=C/c2cccnc2)Oc2cc(OS(=O)(=O)c3ccc(Cl)cc3)ccc21	-3.0	-6.4
CC(C)(CCl)C(=O)N1CCN(c2ncnc3c2nnn3-c2cccc(F)c2)CC1	-1.7	-6.2
Cc1c(CN2CC(=O)N(Cc3ccccc3)CC(O)C2)c(=O)n(-c2ccccc2)n1C (stereo not drawn)	-8.6	-11.3
CCOc1ccc(C(=O)Nc2c(N)nc(SCC(=O)Nc3nccs3)[nH]c2=O)cc1	-2.1	-2.4
Cc1ccc[n+](C2=C(c3c(C)[nH]n(-c4ccc(Cl)cc4)c3=O)C(=O)N(CC(C)C)C2=O)c1	7.5	12.1
O=C(CSc1nc2c(c(=O)n1-c1ccccc1)SCC2)N1CCN(c2ccccc2)CC1	7.3	2.6
COC(=O)c1ccc(C(=O)N2CC(=O)N(Cc3cccnc3)CC(OCc3ccccc3)C2)cc1 (stereo not drawn)	18.8	9.2
O=C1NC(=S)S/C1=C\c1cc(Br)ccc1OCc1ccccc1Br	2.7	-28.5
Cc1ccc(C(=O)N2CCN(c3nc(Cc4ccccc4)nc4onc(-c5ccccc5)c34)CC2)cc1	-1.7	10.2
CCN1CCN(c2c(CN(C(=O)Nc3cccc(OC)c3)C(C)C)c(C)nn2-c2cccc(F)c2)CC1	15.2	22.1
O=C(Nc1cccc(C2SCC(=O)N2c2ccc(C(F)(F)F)cc2)c1)c1ccc(Br)cc1 (stereo not drawn)	8.1	13.1
